Source: PubChem BioAssay (Broad Institute)
HIV Env fusion: blocks HIV Env-driven cell-cell fusion. AID 651610. inhibition, % at 12.3 µM. hit rate 1.1% among 360,000. HeLa-JRFL Env/CEM21 cell fusion, luciferase;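 active = mean replicate inhibition score of at least 50 and every replicate individually at or above 50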;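 note: 0% = plate neutral controls and 100% = maraviroc near 300 nM; one replicate is shown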
UUG fidelity: alters start codon recognition fidelity in yeast. S. cerevisiae UUG-firefly luciferase reporter, luminescence/redox ratio. activity score, % at 18.7 µM. hit rate 0.13% among 350,000. AID 602363;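 active = replicate mean at a twofold rise or more, about +100% in these data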;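 note: firefly luciferase made from a UUG start codon reports start codon fidelity; reporter light over untreated wells divided by growth signal over untreated wells; some hits fall short of that in this replicate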
The depositor's hits bear a star; [ ] = another dose, or the depositor's remark. An excerpt; rates above refer to the full screens.

no.	HIV Env fusion	UUG fidelity	SMILES
1	2[16.7 µM]	-7	CNC(=O)C[C@H]1CC[C@H]2[C@@H](COc3ccc(NC(=O)c4ccc(OC)cc4)cc3C(=O)N2C)O1
2	-6[16.7 µM]	-1	C[C@H](NC(=O)C[C@H]1C[C@@H]2c3cc(NS(C)(=O)=O)ccc3O[C@@H]2[C@@H](CO)O1)c1ccccc1
3	-11[16.7 µM]	-7	CCCNC(=O)N(C)C[C@H]1Oc2ncc(-c3ccc(OC)cc3)cc2C(=O)N([C@@H](C)CO)C[C@@H]1C
4	-9[16.7 µM]	-8	COc1ccc(NC(=O)Nc2ccc3c(c2)C(=O)N([C@H](C)CO)C[C@@H](C)[C@@H](CN(C)C(=O)C2CCCCC2)OCCCC[C@@H](C)O3)cc1
5	5[16.7 µM]	-1	Cc1ccc(S(=O)(=O)N(C)C[C@H]2Oc3ccc(NS(=O)(=O)c4ccccc4)cc3CC(=O)N([C@H](C)CO)C[C@H]2C)cc1
6	-11[16.7 µM]	0	NCC[C@H]1CC[C@H](NC(=O)NC2CCCCC2)[C@H](CO)O1
7	3[16.7 µM]	-16	CCCC(=O)Nc1ccc2c(c1)C(=O)N(C)C[C@H](OC)[C@@H](C)CN[C@H](C)CO2
8	4[16.7 µM]	16	COc1ccc(NC(=O)Nc2ccc3c(c2)C(=O)N([C@H](C)CO)C[C@H](C)[C@@H](CN(C)C(=O)Cc2ccccc2)OCCCC[C@H](C)O3)cc1
9	-5[16.7 µM]	-1	C[C@@H]1CN([C@@H](C)CO)C(=O)c2cc(C#Cc3cccnc3)cnc2O[C@@H]1CN(C)S(C)(=O)=O
10	-20[16.7 µM]	-2	CN(C)C(=O)C[C@H]1CC[C@@H]2[C@H](COc3ccc(NC(=O)C4CCOCC4)cc3C(=O)N2C)O1
11	-13[16.7 µM]	-16	Cc1nn(C)cc1NC(=O)C[C@H]1CC[C@@H]2[C@@H](COc3ccc(NC(=O)C(C)C)cc3C(=O)N2C)O1
12	26[16.7 µM]	13	CNC(=O)C[C@@H]1CC[C@H]2[C@H](COc3ccc(NC(=O)Nc4ccc(Cl)cc4)cc3C(=O)N2C)O1
13	-68[16.7 µM]	-2	C[C@@H]1CN([C@H](C)CO)C(=O)c2cccc(NC(=O)c3ccc(-c4nccs4)cc3)c2O[C@H]1CN(C)S(=O)(=O)c1ccc(Cl)cc1
14	-9[16.7 µM]	3	COc1ccc(NC(=O)N(C)C[C@@H]2Oc3c(NC(=O)Nc4ccc5c(c4)OCO5)cccc3C(=O)N([C@@H](C)CO)C[C@@H]2C)cc1
15	13[16.7 µM]	50	C[C@@H]1CN([C@H](C)CO)S(=O)(=O)c2ccc(Br)cc2O[C@H]1CN(C)CC1CCCC1
16	9[16.7 µM]	15	C[C@H]1CN([C@@H](C)CO)C(=O)c2cccc(NS(C)(=O)=O)c2O[C@H]1CN(C)Cc1ccc(-c2ccccc2)cc1
17	-4[16.7 µM]	-14	CCC(=O)Nc1ccc2c(c1)C(=O)N(C)[C@H]1CC[C@H](CC(=O)N3CCCCC3)O[C@@H]1CO2
18	3[16.7 µM]	8	Cc1noc(C)c1NC(=O)Nc1ccc2c(c1)C(=O)N([C@H](C)CO)C[C@H](C)[C@H](CN(C)Cc1ccc3c(c1)OCO3)OCCCC[C@@H](C)O2
19	-1[16.7 µM]	5	COCC#Cc1cnc2c(c1)C(=O)N([C@H](C)CO)C[C@H](C)[C@@H](CN(C)Cc1ccccc1)O2
20	5[16.7 µM]	-2	C[C@H]1CN([C@@H](C)CO)C(=O)c2cc(N(C)C)ccc2O[C@@H]1CN(C)S(=O)(=O)c1cccs1
21	2[16.7 µM]	-3	O=C(C[C@@H]1C[C@@H]2c3cc(NC(=O)NC4CCCCC4)ccc3O[C@@H]2[C@H](CO)O1)NCc1ccccc1
22	9[16.7 µM]	-12	C[C@H](CO)N1C[C@H](C)[C@H](CN(C)C(=O)Nc2ccccc2)Oc2ccc(NS(=O)(=O)c3ccccc3)cc2C1=O
23	10[16.7 µM]	-3	CO[C@H]1O[C@H](CO)[C@@H](OC(=O)Nc2ccc3c(c2)OCO3)[C@@H]2OC(=O)[C@@H](Cc3ccccc3)C/C=C/C[C@H](Cc3ccccc3)C(=O)O[C@@H]12
24	-66[16.7 µM]	37	COc1ccc(-c2cnc3c(c2)C(=O)N([C@H](C)CO)C[C@H](C)[C@@H](CN(C)C(=O)C2CC2)O3)cc1
25	20[16.7 µM]	4	C[C@@H]1CN([C@@H](C)CO)C(=O)c2cccc(NC(=O)c3ccncc3)c2O[C@H]1CN(C)C(=O)Nc1cccc2ccccc12
26	-2[16.7 µM]	-5	C[C@H](CO)N1C[C@H](C)[C@H](CN(C)CC2CCCCC2)Oc2ccc(NS(=O)(=O)c3cn(C)cn3)cc2C1=O
27	7[16.7 µM]	10	C[C@H](CO)N1C[C@H](C)[C@H](CN(C)C)OCCCC[C@H](C)Oc2ccc(NC(=O)C3CCCCC3)cc2C1=O
28	6[16.7 µM]	1	COc1cccc(S(=O)(=O)N[C@@H]2CC[C@@H](CCn3cc(-c4ccccc4)nn3)O[C@@H]2CO)c1
29	14[16.7 µM]	14	COc1ccc(-c2ccc([C@@H]3[C@@H](C#N)N(C(=O)C4CC4)[C@H]3CO)cc2)cc1
30	-5[16.7 µM]	-16	O=C(Cc1ccncc1)NCC[C@@H]1CC[C@H](NC(=O)C2CCOCC2)[C@H](CO)O1

Entries above containing a halogen, in the order listed:
no.	HIV Env fusion	UUG fidelity	SMILES
12	26[16.7 µM]	13	CNC(=O)C[C@@H]1CC[C@H]2[C@H](COc3ccc(NC(=O)Nc4ccc(Cl)cc4)cc3C(=O)N2C)O1
13	-68[16.7 µM]	-2	C[C@@H]1CN([C@H](C)CO)C(=O)c2cccc(NC(=O)c3ccc(-c4nccs4)cc3)c2O[C@H]1CN(C)S(=O)(=O)c1ccc(Cl)cc1
15	13[16.7 µM]	50	C[C@@H]1CN([C@H](C)CO)S(=O)(=O)c2ccc(Br)cc2O[C@H]1CN(C)CC1CCCC1

Next part:
no.	HIV Env fusion	UUG fidelity	SMILES
31	4[16.7 µM]	-9	O=C(C[C@@H]1CC[C@@H](NC(=O)Nc2cc(F)ccc2F)[C@@H](CO)O1)Nc1ccccc1
32	4[16.7 µM]	11	CCCC(=O)Nc1ccc2c(c1)OC[C@H](C)N(C(=O)C1CCCC1)C[C@H](C)[C@@H](OC)CN(C)C2=O
33	8[16.7 µM]	-3	CCCC#Cc1cnc2c(c1)C(=O)N([C@H](C)CO)C[C@@H](C)[C@@H](CN(C)Cc1ccccc1)O2
34	-5[16.7 µM]	-2	Cc1ccc(S(=O)(=O)N[C@H]2CC[C@@H](CCNC(=O)C3CCC3)O[C@H]2CO)cc1
35	4[16.7 µM]	14	C[C@@H]1CN([C@@H](C)CO)S(=O)(=O)c2ccc(C3=CCCCC3)cc2O[C@@H]1CN(C)C(=O)CN(C)C
36	-19[16.7 µM]	8	C[C@@H]1CN([C@@H](C)CO)C(=O)Cc2cc(NC(=O)Nc3ccccc3)ccc2O[C@@H]1CN(C)Cc1ccc(Oc2ccccc2)cc1
37	38[16.7 µM]	27	C[C@@H]1CN([C@H](C)CO)S(=O)(=O)c2ccc(C#CC(C)(C)O)cc2O[C@H]1CN(C)Cc1ccc(-c2ccccc2)cc1
38	-9[16.7 µM]	-5	C[C@H](O)C#Cc1cnc2c(c1)C(=O)N([C@H](C)CO)C[C@H](C)[C@@H](CN(C)CC1CCCC1)O2
39	11[16.7 µM]	13	C[C@@H]1CN([C@H](C)CO)C(=O)c2cc(N(C)C)ccc2O[C@@H](C)CCCCO[C@H]1CN(C)Cc1ccc(C(=O)O)cc1
40	7[16.7 µM]	-14	C=CC1CN(S(=O)(=O)c2ccc(Br)cc2)C(=O)N1c1ccc(Br)cc1 (stereo not drawn)
41	-13[16.7 µM]	5	CCC(=O)N1C[C@H](C)[C@H](OC)CN(C)C(=O)c2cc(NC(=O)Nc3ccccc3)ccc2OC[C@H]1C
42	-9[16.7 µM]	8	C[C@H]1CN([C@@H](C)CO)C(=O)Cc2cc(NC(=O)C3CC3)ccc2O[C@@H]1CN(C)Cc1ccc(C(=O)Nc2ccccc2N)cc1
43	-10[16.7 µM]	-19	C[C@H](CO)N1C[C@H](C)[C@@H](CN(C)Cc2ccccn2)Oc2ncc(C#Cc3ccccc3)cc2C1=O
44	22[16.7 µM]	-9	CNC(=O)C[C@H]1CC[C@@H]2[C@@H](COc3ccc(NC(=O)c4ccc(OC)cc4)cc3C(=O)N2C)O1
45	-2[16.7 µM]	-5	O=C(C[C@@H]1CC[C@@H](NC(=O)c2ccccc2)[C@@H](CO)O1)NCc1ccncn1
46	-3[16.7 µM]	-32	C[C@@H]1CN([C@@H](C)CO)C(=O)c2cc(-c3ccccc3)cnc2O[C@H]1CN(C)Cc1ccccn1
47	8[16.7 µM]	17	COCC(=O)N(C)C[C@H]1Oc2cc(C#CC3CC3)ccc2S(=O)(=O)N([C@@H](C)CO)C[C@@H]1C
48	7[16.7 µM]	0	C[C@H]1CN([C@@H](C)CO)S(=O)(=O)c2ccc(C3=CCCC3)cc2O[C@@H]1CN(C)CC1CCOCC1
49	-8[16.7 µM]	-2	C[C@@H]1CCCCO[C@@H](CN(C)S(=O)(=O)c2ccccc2)[C@@H](C)CN([C@H](C)CO)C(=O)c2cc(NS(=O)(=O)c3cn(C)cn3)ccc2O1
50	-18[16.7 µM]	-10	CCC(=O)Nc1ccc2c(c1)C(=O)N(C)[C@@H]1CC[C@@H](CC(=O)NC3CCCC3)O[C@H]1CO2

One compound at a time, from the list above.
`COCC(=O)N(C)C[C@H]1Oc2cc(C#CC3CC3)ccc2S(=O)(=O)N([C@@H](C)CO)C[C@@H]1C` in the list: HIV Env fusion = 8[16.7 µM]; UUG fidelity = 17
`COc1ccc(-c2ccc([C@@H]3[C@@H](C#N)N(C(=O)C4CC4)[C@H]3CO)cc2)cc1` in the list: HIV Env fusion = 14[16.7 µM]; UUG fidelity = 14

Following part
no.	HIV Env fusion	UUG fidelity	SMILES
51	-24[16.7 µM]	-24	C[C@H](CO)N1C[C@H](C)[C@@H](CN(C)C(=O)C2CCCCC2)OCCCC[C@H](C)Oc2ccc(NC(=O)Nc3cccc4ccccc34)cc2C1=O
52	6[16.7 µM]	-10	Cc1noc(C)c1NC(=O)N(C)C[C@H]1Oc2c(NC(=O)NC(C)C)cccc2C(=O)N([C@@H](C)CO)C[C@H]1C
53	-25[16.7 µM]	20	Cc1noc(C)c1NC(=O)Nc1ccc2c(c1)C(=O)N([C@H](C)CO)C[C@H](C)[C@@H](CN(C)C(=O)Nc1ccccc1)OCCCC[C@H](C)O2
54	20[16.7 µM]	-1	C[C@@H]1CN([C@H](C)CO)C(=O)c2cccc(NC(=O)Nc3ccccc3)c2O[C@H]1CN(C)Cc1ccc(-c2ccccc2)cc1
55	-3[16.7 µM]	2	C[C@@H]1CCCCO[C@@H](CN(C)Cc2ccc(C(F)(F)F)cc2)[C@H](C)CN([C@H](C)CO)C(=O)c2cc(NC(=O)CCCN(C)C)ccc2O1
56	17[16.7 µM]	-12	Cc1noc(C)c1NC(=O)N(C)C[C@@H]1Oc2ccc(NC(=O)C3CCCCC3)cc2C(=O)N([C@H](C)CO)C[C@H]1C
57	11[16.7 µM]	-1	CC(C)NC(=O)N(C)C[C@@H]1OCCCC[C@@H](C)Oc2ccc(NC(=O)c3ccncc3)cc2C(=O)N([C@H](C)CO)C[C@@H]1C
58	16[16.7 µM]	-7	O=C(N[C@@H]1CC[C@@H](CC(=O)N2CCOCC2)O[C@@H]1CO)c1ccc2c(c1)OCO2
59	14[16.7 µM]	2	C[C@@H]1CCCCO[C@@H](CN(C)C(=O)Nc2ccccc2)[C@@H](C)CN([C@H](C)CO)C(=O)c2cc(NC(=O)Nc3cccc4ccccc34)ccc2O1
60	4[16.7 µM]	10	C[C@H](O)C#Cc1ccc2c(c1)O[C@H](CN(C)C(=O)C1CC1)[C@H](C)CN([C@@H](C)CO)S2(=O)=O
61	68*[16.7 µM]	23	C[C@H](CO)N1C[C@H](C)[C@H](CN(C)Cc2ccccc2F)Oc2cc(C3=CCCC3)ccc2S1(=O)=O
62	5[16.7 µM]	3	C[C@H]1CN([C@@H](C)CO)C(=O)c2cc(NC(=O)Nc3cccc4ccccc34)ccc2O[C@@H]1CN(C)Cc1ccc2c(c1)OCO2
63	7[16.7 µM]	-5	CN1CCN(C(=O)C[C@H]2C[C@@H]3c4cc(NC(=O)Nc5ccc(C(F)(F)F)cc5)ccc4O[C@@H]3[C@H](CO)O2)CC1
64	-24[16.7 µM]	-5	C[C@H](CO)N1C[C@H](C)[C@H](CN(C)C(=O)c2cccc(F)c2)Oc2cc(-c3ccncc3)ccc2S1(=O)=O
65	18[16.7 µM]	-4	O=C(N[C@H]1C=C[C@@H](CC(=O)N2CCCCC2)O[C@H]1CO)c1cccc(F)c1
66	64*[16.7 µM]	0	COc1ccc([Si](C)(C)[C@@H]2[C@@H](CCO)O[C@]3(C(=O)N(Cc4ccccc4)c4ccc(N5C(=O)c6cccc7cccc5c67)cc43)[C@H]2C)cc1
67	0[16.7 µM]	41	COc1ccc(NC(=O)Nc2ccc3c(c2)C(=O)N([C@@H](C)CO)C[C@@H](C)[C@H](CN(C)Cc2ccncc2)OCCCC[C@@H](C)O3)cc1
68	4[16.7 µM]	11	COc1ccc(S(=O)(=O)N(C)C[C@H]2Oc3ncc(-c4ccncc4)cc3C(=O)N([C@H](C)CO)C[C@@H]2C)cc1

Part of the list above, as a markdown table:
| entry | canonical_smiles | HIV Env fusion | UUG fidelity |
| --- | --- | --- | --- |
| 66 | COc1ccc([Si](C)(C)[C@@H]2[C@@H](CCO)O[C@]3(C(=O)N(Cc4ccccc4)c4ccc(N5C(=O)c6cccc7cccc5c67)cc43)[C@H]2C)cc1 | 64*[16.7 µM] | 0 |
| 67 | COc1ccc(NC(=O)Nc2ccc3c(c2)C(=O)N([C@@H](C)CO)C[C@@H](C)[C@H](CN(C)Cc2ccncc2)OCCCC[C@@H](C)O3)cc1 | 0[16.7 µM] | 41 |
